Yeast UUG start = modulators of yeast start codon fidelity, primary screen, whole organism, S. cerevisiae, single point, plate reader; S. cerevisiae UUG-firefly luciferase reporter, luminescence/redox ratio; activity score, % at 18.7 µM; actives 0.13% (n = 350,000); AID 602363, 2012;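 active = replicate mean at a twofold rise or more, about +100% in these data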;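 note: firefly luciferase made from a UUG start codon reports start codon fidelity; reporter light over untreated wells divided by growth signal over untreated wells; some hits fall short of that in this replicate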
MT1-MMP act inh = blockers of MT1-MMP proenzyme processing, primary screen, HT1080 RFP-PRO-GFP cells, GFP/RFP fluorescence | Matrix metalloproteinase-14 (Homo sapiens), P50281 | GFP/RFP ratio fluorescence, overnight; percent of plate control window, DMSO zero | GFP/RFP ratio change, % at 20 µM | actives 0.061% (n = 360,000) | AID 651647, 2012;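 active = GFP/RFP ratio change of at least 30% with cell ATP level not reduced by more than half and red fluorescence within 50% of control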; note: strong numbers were not always called active
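Read-out: GFP/RFP fluorescence ratio; Test system: RFP-PRO-GFP reporter HT1080 cells; Compound dosing: single-point 20 µM compound, 1% DMSO; Times: overnight compound exposure at 37 °C.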
HIV Env fusion = inhibitors of HIV-1 Env-driven cell-cell fusion, primary screen, HeLa-JRFL effector, CEM21 target cells, luciferase. inhibition, % at 12.3 µM. actives 1.1% (n = 360,000). AID 651610, 2012;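 active = mean replicate inhibition score of at least 50 and every replicate individually at or above 50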;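 note: 0% = plate neutral controls and 100% = maraviroc near 300 nM; one replicate is shown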
CSC inhib = cancer stem cell viability inhibitors, primary screen, luminescence. cancer stem cell-like cells viability. inhibition, % at 7.5 µM. actives 1.1% (n = 300,000). AID 2717, 2010;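 active = mean at 75% or more and at least half the replicates too; tested in HMLE shEcad cells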;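 note: 0% = median of negative and 100% = median of positive control wells; the first replicate is given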
eIF4H inh = human eIF4H binding inhibitors, primary screen, translation initiation inhibitor project, biochemical, uHTS, fluorescence polarization | Eukaryotic translation initiation factor 4H (Homo sapiens), Q15056 | eIF4H fluorescence polarization binding assay | inhibition, % at 35 µM | actives 0.94% (n = 290,000);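 active = 50% or more with normal probe brightness, or confirmed in later tests; about a fifth of its hits are not listed in these tables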;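 note: calls also rest on retests at 20 µM and on dose response follow-up; 0% = protein and probe with vehicle and 100% = probe without protein; strong numbers were not always called active; many hits fall short of the cut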
Rce1 inh = yeast Rce1p protease inhibitors, primary screen, biochemical, fluorescence, cell-free homogeneous. yeast membranes, quenched prenylated peptide cleavage fluorescence. calls only. actives 0.27% (n = 290,000);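 active = fall in fluorescence gain of 50% or more versus controls, with final raw signal at or below 3038400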;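 note: plate controls were neutral control wells for no effect and wells lacking membranes for full effect; tested at 10 µM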
Target sequence (Q03530 whole entry, looked up): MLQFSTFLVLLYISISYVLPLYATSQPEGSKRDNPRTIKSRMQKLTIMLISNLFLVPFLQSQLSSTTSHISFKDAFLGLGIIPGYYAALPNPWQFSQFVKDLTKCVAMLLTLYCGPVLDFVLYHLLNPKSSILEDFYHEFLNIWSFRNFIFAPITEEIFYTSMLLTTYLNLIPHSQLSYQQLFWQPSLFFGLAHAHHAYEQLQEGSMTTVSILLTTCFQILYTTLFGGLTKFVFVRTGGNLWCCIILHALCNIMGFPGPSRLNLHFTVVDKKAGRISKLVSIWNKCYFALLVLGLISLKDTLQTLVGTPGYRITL
PABP FP inh = PABP poly(A) RNA binding inhibitors, primary screen, biochemical, fluorescence polarization, uHTS; inhibition, % at 35 µM; actives 1% (n = 290,000); Polyadenylate-binding protein 1 (Homo sapiens), P11940;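 active = 50% or more with normal probe brightness, or confirmed in later tests; about a fifth of its hits are not listed in these tables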;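 note: calls also rest on retests at 20 µM and on dose response follow-up; controls were probe without protein and protein plus probe with vehicle; some compounds called inactive have numbers as strong as hits; many hits fall short of the cut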
MT1-MMP act inh RFP = also measured in MT1-MMP act inh; calls as there; RFP signal change, %; measured here: RFP expression control read;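 0 = vehicle wells; hits needed this value within 50% of zero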
* = called active by the depositor; i = inactive; / = not tested or not shown; & = joins results of further samples; [ ] = dose if it differs, or a comment.

SMILES	Yeast UUG start	MT1-MMP act inh	MT1-MMP act inh RFP	HIV Env fusion	CSC inhib	eIF4H inh	Rce1 inh	PABP FP inh
Cc1c(Cc2ccccc2)[n+](=O)c2ccccc2n1[O-]	-20	0	0	13	/	/	/	/
CCCCC(CCC(=O)Nc1ccccc1C(=O)OCC)C(=O)O (stereo not drawn)	/	0	3	/	2	-5	i	-7
Cc1nc(C(F)(F)F)nc(Nc2ccc(N=Nc3ccccc3)cc2)c1C#N	/	2	1	15	-5	0	i	-1
O=C(Nc1ccncc1)c1cc(-c2ccccn2)nc2ccc(Br)cc12	-15	-1	2	-2	1	-2	i	-36
O=c1[nH]c2ccccc2c(=O)n1CCCO	-14	-4	0	/	-9	-2	i	-5
Cc1cc(C)nc(SCc2cnc(C)nc2N)n1	-10	1	1	26	-4	1	i	9
O=C(CSc1nnnn1-c1ccccc1)c1cc2ccccc2oc1=O	-13	-24	-3	/	3	2	i	8
C[C@H]1CCCCO[C@H](CN(C)S(=O)(=O)c2cn(C)cn2)[C@@H](C)CN([C@@H](C)CO)C(=O)c2cc(NS(=O)(=O)c3ccccc3)ccc2O1	14&6	1	3	6[16.7 µM]	/	/	/	/
COC(=O)NCC(c1ccco1)N1CCN(c2ccccc2)CC1 (stereo not drawn)	/	-3	1	-4	-12	-6	i	2
O=C(CN1C(=O)N/C(=C\c2ccccc2OCc2ccc(C(=O)O)cc2)C1=O)Nc1ccccc1F	-3	0	3	4	/	9	i	-5
COCCCNC(=O)C(=O)NCC1CCCN1S(=O)(=O)c1cccs1 (stereo not drawn)	/	0	3	-26	6	/	i	/
O=C(c1ccco1)N1CCN(C(=O)c2[nH]ncc2[N+](=O)[O-])CC1	1	-5	-1	/	-9	-4	i	-2
O=C(NCCc1ccccc1)Nc1cccc(Cl)c1	/	4	-2	9	-5	-4	i	44
Cc1ccc([N+](=O)[O-])cc1-c1ccc2cccc(C)c2n1	-23	6	1	-7	-10	4	i	3
Nc1ccc2nn(-c3ccccc3)nc2c1	-8	0	1	-25	/	46	/	24
Cc1ccc(S(=O)(=O)CC(CN2CCCCC2)N2CCCCC2)cc1 (stereo not drawn)	/	-9	-6	-2	/	-12	/	-1
CCC(C)[C@H](NC(=O)NCc1ccccc1Cl)C(=O)OC (stereo partly drawn)	-8	-2	3	7	-17	-12	i	-5
COc1cc2c(cc1OC)C(C)N(C(=O)c1sc(-c3cnccn3)nc1C)CC2 (stereo not drawn)	/	/	/	9	-2	-10	i	16
O=C(CCCOc1ccccc1)NCC1CCCO1 (stereo not drawn)	5	-3	-1	/	/	-4	/	7
COc1ccc(CCNC(=O)COC(=O)COc2c(C)cc(C)cc2C)cc1OC	-8	0	7	0	-10	-5	i	-12
CC1(C)CC(=O)C2=C(C1)OC(N)=C(C#N)C21CCC2(CC1)OCCO2	-13	-4	6	/	-9	2	i	9
O=C(COC(=O)c1ccc(F)c(S(=O)(=O)N2CCOCC2)c1)NCCc1ccc(F)cc1	4	-3	-1	/	4	/	/	/
O=C(NCCO)C(=O)NCC(c1cccs1)S(=O)(=O)c1ccc(F)cc1 (stereo not drawn)	-16	2	5	-16	/	/	/	/
Cc1cccnc1CCNC(=O)c1ccc(OC2CCN(Cc3ccccn3)CC2)cc1	-23	-1	3	-9	-4	16	/	-1
Cc1ccc(C)c(Cn2nnc(C(=O)Nc3ccc4c(c3)OCCO4)c2N)c1	-17	7	-6	-46	35	/	i	/
(list continues)
SMILES	Yeast UUG start	MT1-MMP act inh	MT1-MMP act inh RFP	HIV Env fusion	CSC inhib	eIF4H inh	Rce1 inh	PABP FP inh
Cc1ccccc1OC(C)C(=O)Nc1ccc2c(c1)OCCO2 (stereo not drawn)	-4	5	4	-32	-1	6	i	-10
COC(=O)Nc1ccc(S(=O)(=O)N2CCCC(C(=O)Nc3cccc4c3OCCO4)C2)cc1 (stereo not drawn)	-13	-2	3	-3	0	0	/	14
O=C(NCC(=O)N1CCCC1)c1ccc(Br)o1	-2	1	5	0	-4	0	i	3
COCCCNC(=O)c1cc2cc([N+](=O)[O-])cc(OC)c2oc1=O	-15	9	6	10	-5	-2	i	6
CC(C)C(=O)Nc1ccc(-c2ccc3nncn3n2)cc1	/	0	2	-6	9	-9	i	-2
Cc1nc(=O)c(-c2ccccc2)c(C)n1CCCO	-10	-5	3	-91	-10	-4	i	10
COC(=O)c1cnc(Nc2nc(C(N)Cc3ccccc3)cs2)nc1C(F)(F)F (stereo not drawn)	3	4	8	-41	/	/	/	/
CC1CCN(CCc2nc3cc(NC(=O)COc4ccc(Cl)cc4)ccc3n2C)CC1	-7	5	-2	10	1	-9	i	1
CCc1ccc(-c2ccc(SCc3ccccn3)nn2)cc1	-26	-4	-6	-17	2	-4	i	0
Nc1c(C(=O)O)sc2nc(-c3ccccc3)c3c(c12)CCCC3	/	-6	4	10	0	3	i	18
Cn1c(=O)cc(SCC(=O)Nc2ccc3c(c2)OCO3)c2ccccc21	-19	7	1	-72	3	-14	i	-4
N=c1c2c3c(sc2nc2n1CCC2)CCCC3	-21	3	3	-21	-6	-3	i	-9
Cc1ccccc1N(C(=O)c1csnn1)C(C(=O)NC(C)(C)C)c1ccncc1 (stereo not drawn)	-7	2	2	0	-6	1	i	0
O=C(Nc1nnc(-c2ccccc2)o1)c1cccc(N2C(=O)CCC2=O)c1	/	-1	3	9	-1	0	i	1
Nc1nc(N2CCCCC2)nc(N2CCCCC2)n1	3	-3	-3	/	-13	-2	i	-4
CC(OC(=O)COc1ccccc1Cc1ccccc1)C(=O)N(C)c1ccccc1 (stereo not drawn)	1	-4	-5	7	/	/	i	/
NC(=O)c1ccccc1NC(=O)Nc1cccc2ccccc12	/	-1	1	-1	-12	-6	i	-6
COc1cccc(C(=O)NCCS(=O)(=O)NCc2ccc3c(c2)OCO3)c1	-10	4	4	/	-5	/	i	/
O=S(=O)(c1ccccc1)N1CCCc2ccccc21	/	/	/	/	-13	5	i	-2
COc1ccc(N/C=C\C(=O)c2ccc3ccccc3c2)cc1	-17	3	0	-28	3	-8	i	-9
CCN(CC)C(=O)CSc1nnc([C@@H](N)C(C)C)o1	/	-5	-3	-5	7	1	i	7
CCOC(=O)N1CCN(c2c(NCCCN(CC)c3cccc(C)c3)c(=O)c2=O)CC1	4	5	1	0	-4	-26	i	2
C[C@H]1CN=C(Nc2ccccc2)N1CCc1ccc(F)cc1	-21	-1	1	20	8	/	/	/
COc1ccc(C(C)=O)cc1COC(=O)C1CCN(C(=O)c2ccc(Cl)cc2)CC1	-4	1	3	0	58	/	/	/
COC(=O)c1cc(NC(=O)CN(c2ccc(OC)cc2)S(=O)(=O)c2ccc(F)cc2)ccc1Cl	4	-3	-5	/	/	0	i	-3
Next part
SMILES	Yeast UUG start	MT1-MMP act inh	MT1-MMP act inh RFP	HIV Env fusion	CSC inhib	eIF4H inh	Rce1 inh	PABP FP inh
CCOC(=O)N1CCN(C(=O)c2cc3cc(F)ccc3[nH]2)CC1	-10	2	0	-4	-8	2	i	-1
CC1Oc2ccccc2N(CC(=O)c2cccc(Cl)c2)C1=O (stereo not drawn)	-13	-3	-5	43	-6	4	i	-1
CC(C)CN1CCN(Cc2cnc(-c3ccc(Cl)cc3)nc2)CC1CCO (stereo not drawn)	-7	2	-8	-5	28	-1	i	6
CC(C)(CNC(=O)c1cc([N+](=O)[O-])ccc1N1CCC(Cc2ccccc2)CC1)N1CCOCC1	2	-14	-14	21	-4	/	/	/
COC(=O)c1ccccc1NC(=O)NCc1ccc2c(c1)OCO2	-14	1	4	5	-3	7	i	-2
Cc1nn(Cc2ccc(Cl)cc2)c(C)c1NC(=O)CCCn1nc([N+](=O)[O-])c(Cl)c1C	1	2	-5	-9	-2	1	i	-5
c1cc(CCCc2ccncc2)ccn1	-10	-1	-4	/	-6	/	/	/
COCc1cc(CN2CCCC(C(=O)c3cccc(C(F)(F)F)c3)C2)ccc1OC (stereo not drawn)	-4	-1	2	-7	26	4	i	-5
O=C(c1cc(-c2ccc(Cl)cc2Cl)on1)N1CCCCCC1	-48	0	1	-88	-2	-7	i	1
COC(=O)COc1ccc(NC(=O)C2CCCO2)cc1 (stereo not drawn)	-20	2	2	-7	-14	-7	i	7
CCN(C1CCCCC1)S(=O)(=O)CCNC(=O)c1ccc(OC)cc1	-8	-6	2	10	/	/	/	/
O=C(CSCc1ccc(Cl)cc1)N1CCCCC1	-8	2	5	/	/	-13	i	0
COc1ccc(Br)cc1CNC(=O)Cc1c(C(=O)O)[nH]c2ccc(Cl)cc12	/	-3	3	9	0	-1	i	-11
COc1cc(OC)c2c(-c3cccc(-c4ccc(C#N)cc4)c3)cc(=O)oc2c1	-36	8	-11	-34	/	/	/	/
C/C(=N\NC(=O)c1cccc(N/N=C(\C)c2ccncc2)c1)c1ccncc1	/	0	-2	-21	-1	-14	i	-6
Cc1c(NC(=S)NC(C)(C)C)c(=O)n(-c2ccccc2)n1C	/	-1	0	3	5	-3	i	0
CCN(CC1CCCN(CCc2cccc(F)c2)C1)C(=O)c1cc2ccccc2o1 (stereo not drawn)	-1	-6	-4	18	24	49	i	29
CN(C[C@H](Cc1ccccc1)N(C[C@H](Cc1ccccc1)N(CC1(c2ccccc2)CC1)N=O)N=O)N=O	-20	-1	-10	98*	2	2	i	-11
COCCCN(Cc1cc(OC)c(OC)c(OC)c1)C(=S)Nc1cccc(Cl)c1	-26	10	-10	-5	/	/	/	/
CC(NC(=O)c1cc2cc([N+](=O)[O-])ccc2oc1=O)C1CCCO1 (stereo not drawn)	-8	5	7	12	-8	-6	i	-3
Cc1ccc(C(=O)NCC(=O)Nc2ccccc2C)o1	-20	0	5	-346	/	/	/	/
Cc1nc2ccccc2n1CC(=O)c1ccccc1	-29	0	-6	0	-16	22	i	23
CCN1C(=O)c2cccc3c(S(=O)(=O)Nc4nc(C)cs4)ccc1c23	-7	12	11	/	6	-7	i	-5
Cc1cc(NC(=O)CCC(=O)N(CC(=O)NC2CCCC2)c2ccc(C(C)C)cc2)no1	-20	1	0	5	-46	-1	i	5
Cc1ccnc(NC(=O)c2cccc(NC(=O)Cc3ccccc3)c2)c1	/	4	2	-41	41	-6	i	-8
Cc1ccc2[nH]c(C(=O)O)c(-c3ccccc3)c2c1	-16	13	7	/	-17	-9	i	4
Oc1cc2ccccc2nc1-c1ccccc1Cl	-9	-1	1	13	-9	-11	i	32
COC(=O)c1ccc(N=C2S/C(=C\c3cc(C)n(-c4cccnc4)c3C)C(=O)N2C)cc1	-20	-10	-7	/	18	-2	i	2
CCNCc1nc2cc(OC)c(OC)cc2c(=O)[nH]1	-6	14	5	8	-5	-5	i	1

Seven compounds picked at random from the list so far:
SMILES	Yeast UUG start	MT1-MMP act inh	MT1-MMP act inh RFP	HIV Env fusion	CSC inhib	eIF4H inh	Rce1 inh	PABP FP inh
CCN1C(=O)c2cccc3c(S(=O)(=O)Nc4nc(C)cs4)ccc1c23	-7	12	11	/	6	-7	i	-5
CC1Oc2ccccc2N(CC(=O)c2cccc(Cl)c2)C1=O (stereo not drawn)	-13	-3	-5	43	-6	4	i	-1
Cc1cc(NC(=O)CCC(=O)N(CC(=O)NC2CCCC2)c2ccc(C(C)C)cc2)no1	-20	1	0	5	-46	-1	i	5
COC(=O)c1ccc(N=C2S/C(=C\c3cc(C)n(-c4cccnc4)c3C)C(=O)N2C)cc1	-20	-10	-7	/	18	-2	i	2
CCN(CC1CCCN(CCc2cccc(F)c2)C1)C(=O)c1cc2ccccc2o1 (stereo not drawn)	-1	-6	-4	18	24	49	i	29
CC(NC(=O)c1cc2cc([N+](=O)[O-])ccc2oc1=O)C1CCCO1 (stereo not drawn)	-8	5	7	12	-8	-6	i	-3
COCCCN(Cc1cc(OC)c(OC)c(OC)c1)C(=S)Nc1cccc(Cl)c1	-26	10	-10	-5	/	/	/	/
